Mtb H37Rv: M. tuberculosis H37Rv growth inhibitors, H37Rv strain (AID 1626); M. tuberculosis H37Rv growth inhibition; higher % means a stronger effect; inhibition, % at 10 µM, or IC50 in µM where a hit was titrated; 220,000 tested, 0.95% active;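 active means confirmed in a dose series; inconclusive means inhibition above 80% but not taken into the dose series; inactive means below 80% or under 30% at every dose of the series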;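 further: bacteria incubated seven days before Alamar blue readout; 0% = bacteria only wells and 100% = bacteria with antibiotic wells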
YopH inh: inhibitors of Yersinia enterocolitica YopH tyrosine phosphatase. fluorescence Ex485/Em525. AID 898. inhibition, %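 (about 10 µM by stock and volumes)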. 140,000 tested, 0.16% active;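 active means inhibition of 50% or more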;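 further: controls were vehicle for no effect and minimum signal wells for full effect; inactives centre near -20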
RecA intein inh: inhibitors of M. tuberculosis RecA intein splicing; P9WHJ3; cell-free RecA intein splicing, fluorescence; inhibition, %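 (about 9 µM by stock and volumes)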; 290,000 tested, 0.75% active; in the data active means inhibition above about 30%; inconclusive means no clear call, values can overlap the other calls;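 further: 0% = vehicle wells and 100% = reference inhibitor control wells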
Target sequence (P9WHJ3 whole entry, looked up): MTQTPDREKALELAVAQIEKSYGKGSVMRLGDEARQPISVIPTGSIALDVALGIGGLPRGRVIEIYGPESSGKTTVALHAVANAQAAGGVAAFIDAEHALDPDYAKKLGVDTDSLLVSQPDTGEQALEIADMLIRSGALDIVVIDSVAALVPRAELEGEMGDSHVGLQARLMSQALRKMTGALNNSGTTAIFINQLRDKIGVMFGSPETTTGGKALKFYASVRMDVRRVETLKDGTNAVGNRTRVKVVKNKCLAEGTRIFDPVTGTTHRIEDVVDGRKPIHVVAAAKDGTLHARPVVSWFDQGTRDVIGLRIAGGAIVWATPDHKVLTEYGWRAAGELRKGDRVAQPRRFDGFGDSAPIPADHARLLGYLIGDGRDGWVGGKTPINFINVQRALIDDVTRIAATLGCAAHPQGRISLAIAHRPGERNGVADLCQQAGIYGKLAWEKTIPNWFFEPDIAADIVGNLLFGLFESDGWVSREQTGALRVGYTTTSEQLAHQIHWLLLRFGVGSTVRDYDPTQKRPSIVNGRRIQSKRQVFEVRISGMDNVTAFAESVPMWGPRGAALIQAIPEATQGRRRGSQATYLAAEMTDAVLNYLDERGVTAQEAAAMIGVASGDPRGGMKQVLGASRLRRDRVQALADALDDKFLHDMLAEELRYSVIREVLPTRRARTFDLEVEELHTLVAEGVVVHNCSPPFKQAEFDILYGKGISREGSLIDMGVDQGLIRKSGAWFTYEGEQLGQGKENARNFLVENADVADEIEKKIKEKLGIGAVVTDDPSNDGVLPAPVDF
Mtb bLac sens: beta-lactam sensitization of Mtb H37Rv | M. tuberculosis H37Rv growth with meropenem, percent inhibition; hits of this screen are not shown here | inhibition, % at 25 µM | 330,000 tested, 0.27% active | AID 434955;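 active means about 74% or more and at least 40 points above the plate without the antibiotic, then above 30% in a dose series; inconclusive means first-round hits that could not be retested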;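 further: growth measured after seven days incubation then overnight dye step; 0% = bacteria only wells and 100% = bacteria with antibiotic; twin plates without the antibiotic show which effects depend on it; some results filed as inactive read as strong as hits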
Arbovirus anti: antivirals against arbovirus infection; arbovirus infection cell-based antiviral screen; inhibition, % at 10 µM; 200,000 tested, 0.37% active;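 active means inhibition from about 30%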;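 further: bluetongue infection of BSR cells; cell survival read as ATP light after 72 h; 0% = infected wells without compound and 100% = uninfected wells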
Arbovirus anti repeat: second read-out of Arbovirus anti, no call of its own (marks repeat the call); inhibition, %; measured here: 10K subset replicate screen; many hits read low in the repeat;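 first of two repeat runs on a subset; 0% = infected and 100% = uninfected wells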
* marks the source's active call; other numbers are inactive results; ? = inconclusive; / = not tested or not shown.

SMILES | Mtb H37Rv | YopH inh | RecA intein inh | Mtb bLac sens | Arbovirus anti | others
O=S(=O)(Nc1ccc(N2CCOCC2)cc1)c1cccs1 | -3% | 17 | -0.5 | -3 | 6
O=C(Nc1cc(Cl)ccc1Cl)C1CC(=O)N(c2ccc(Br)cc2)C1 (centres undefined) | -8% | -3 | -0.5 | -10 | 4
O=C(NCCC1=CCCCC1)c1ccc(Cl)cc1 | -8% | / | 1.5 | -13 | 0
O=C(COc1ccc(Cl)cc1Br)NC(=O)NCc1ccccc1 | 1% | -31 | -1.1 | 4 | -4
N#CC(c1ccc(Cl)cc1)c1ncc(C(F)(F)F)cc1Cl (centres undefined) | -3% | -23 | 0.8 | 4 | -5
CCN1N=C(c2ccccc2)Cn2c1nc1ccccc12 | 71% | 11 | 1.0 | 95 | 16
C=CCC1(/C=N/O)CCOC(C)(C)C1 (centres undefined) | -10% | / | 3.9 | -4 | /
CCO[C@H]1OC(C(=O)O)=C[C@@H](c2csc3ccccc23)[C@@H]1CCCO | -7% | / | 1.5 | -13 | 5
O=C(COc1ccc(/C=C2/NC(=O)NC2=O)cc1)Nc1ccc(F)cc1 | / | / | -0.3 | -1 | /
COc1ccc(-c2csc(NC(=O)CN3C(=O)CCC3=O)n2)cc1 | 2% | / | / | -1 | 14
COc1cc(C(C(=O)NC2CCCC2)N(C(=O)c2snc(C(N)=O)c2N)c2ccccc2)cc(OC)c1OC (centres undefined) | / | / | -5.3 | -6 | /
Cn1cc(CNC(=O)CC2C(=O)NCCN2CC(C)(C)C)cn1 (centres undefined) | -1% | / | -3.9 | -1 | -1
CC(C)c1ccc(S(=O)(=O)N2CCN(C(C)C(=O)Nc3ccccc3-c3ccccc3)CC2)cc1 (centres undefined) | -4% | -3 | 11 | -2 | 21
C=CCc1c(C)nc(SCc2ccccc2)[nH]c1=O | / | / | -0.4 | 1 | /
COc1cc(C(C(=O)NC2CCCC2)N(C(=O)Cc2cccs2)C2CC2)cc(OC)c1OC (centres undefined) | 3% | / | -1.5 | -2 | 5
CCn1nc(C)cc1C(=O)N1CCCC(C(=O)c2cccc(OC)c2)C1 (centres undefined) | 4% | / | -0.3 | 0 | 6
CS(=O)(=O)N(CC(=O)Nc1ccc2c(c1)OCCO2)c1ccc2c(c1)OCO2 | -6% | 6 | 0.3 | 1 | 11
CCCCOc1ncnc2c1[nH]c1ccc(OC)cc12 | -7% | -1 | / | 4 | -8
COc1ccc(N/N=C/c2c(O)n(-c3cccc(C)c3)c(=O)[nH]c2=O)cc1 | 16% | / | -2.5 | 61 | -35
COc1cccc(NC(=O)Nc2nnc(N3CCCCC3C)s2)c1 (centres undefined) | / | -5 | -2.9 | 10 | 38* | Arbovirus anti repeat=25*
CCCCCc1nnc(NC(=O)C2=COCCO2)s1 | / | / | -4.5 | 3 | /
c1ccc2c(c1)nc(N1CCOCC1)c1ccccc12 | -6% | / | -0.2 | 0 | 0
N#CC(C#N)=Cc1c(N2CCN(c3ccccc3)CC2)nc2ccccn2c1=O | / | / | 4.0 | -11 | /
CCCc1cc(=O)[nH]c(SCC(=O)N2CCCc3ccccc32)n1 | -2% | / | 2.0 | 3 | 7

Overlap with the part before: two entries, followed by the next part.
SMILES | Mtb H37Rv | YopH inh | RecA intein inh | Mtb bLac sens | Arbovirus anti | others
N#CC(C#N)=Cc1c(N2CCN(c3ccccc3)CC2)nc2ccccn2c1=O | / | / | 4.0 | -11 | /
CCCc1cc(=O)[nH]c(SCC(=O)N2CCCc3ccccc32)n1 | -2% | / | 2.0 | 3 | 7
CCOC(=O)c1cnc(-n2nc(C)cc2C)nc1Nc1cccc(C(C)=O)c1 | 2% | -4 | -9.1 | 85 | /
O=c1c2c(nc3n1CCCCC3)-c1ccccc1CC21CCCC1 | 15% | -47 | 14 | 17 | 5
CCOc1cc(C(=O)NN=C2CCCC2)cc(OCC)c1OCC | / | / | 0.6 | 3 | /
O=C(O)CSc1cc(NS(=O)(=O)c2cccc([N+](=O)[O-])c2)c2ccccc2c1O | 3% | / | 95* | / | /
Nn1c(SCC(=O)NCCCc2ccccc2)nnc1-c1cccnc1 | -1% | / | 7.8 | -6 | /
CC(C)(C)c1ccc(C(=O)/C=C2\NC(=O)CS2)cc1 | 12µM* | -15 | 2.2 | 74 | -8
Cc1ccc(COc2ccc3c(c2)OCO3)cc1 | / | / | 3.2 | -3 | /
S=C(NC1CCCC1)N1CCN(c2ccccn2)CC1 | 1% | 1 | -0.6 | -3 | -1
C=CCN1CC[C@]23c4c5ccc(O)c4O[C@H]2/C(=N/NC(=O)c2ccccc2)CC[C@@]3(O)[C@H]1C5 | -7% | / | -3.7 | -3 | /
CC1CCc2c(nc3nc[nH]n3c2=O)C1 (centres undefined) | 0% | -12 | -0.5 | -7 | 5
COc1ccccc1CN1CC(C(=O)N(C)CCCn2nc(C)cc2C)CCC1=O (centres undefined) | / | / | -0.8 | -1 | /
COC(=O)c1cc(OC)c(OC)cc1NC(=O)c1cccc(OC)c1OC | -12% | / | 4.1 | -1 | -11
CCOC(=O)CCCCC(=O)c1[nH]c(=O)[nH]c1CSc1nnc2c3ccccc3n(C(C)C)c2n1 | 1% | -28 | -0.4 | -1 | -5
CCOC(=O)N1CCC(=NNc2ccc(S(N)(=O)=O)cc2[N+](=O)[O-])CC1 | -4% | / | -1.1 | 2 | 4
CC(=O)C1=C(C)OC(N)=C(C#N)C1c1ccco1 (centres undefined) | -3% | -7 | 4.5 | 1 | 6
CS(=O)(=O)c1ccc(-c2nnc(NC(=O)c3ccco3)o2)cc1 | / | / | -1.6 | 5 | /
CC1(C)N2CC3([N+](=O)[O-])CN1CC([N+](=O)[O-])(C2)C3 | -10% | / | 1.5 | -3 | /
COc1cc(CNCCCN2CCOCC2)cc(Cl)c1OCC(=O)NC(C)(C)C | / | / | -0.5 | -4 | /
CC(=O)Nc1ccccc1-c1nnc(SCc2ccccc2Cl)[nH]c1=O | 0% | -9 | -0.4 | -3 | 4
O=C(CC1C(=O)NC2CCCCC2N1C(=O)c1ccc([N+](=O)[O-])cc1)Nc1ccccc1 (centres undefined) | -4% | / | 1.2 | 3 | 4
Cc1c(OCc2ccccc2)c(=O)ccn1Cc1ccc(F)cc1 | 18% | / | 12 | 10 | -5
CCc1cc(=O)n2[nH]c(-c3ccccc3)c(-c3ccccc3)c2n1 | / | / | -0.5 | 0 | /
CC(=O)N[C@@H]1c2c(ccc3ccccc23)OC[C@@H]1COC(C)=O | -9% | / | 0.8 | -1 | 4
COc1ccc(C(C)NC(=S)NC2CCCC2)cc1OC (centres undefined) | -3% | -32 | 3.6 | -14 | 7
CN(C(=O)CN1C(=O)NC2(CCc3ccccc32)C1=O)C1CCS(=O)(=O)C1 (centres undefined) | / | / | 0.2 | -7 | /
O=C(c1ccc(Br)cc1)c1cc([N+](=O)[O-])ccc1N1CCOCC1 | 2% | / | -0.6 | 0 | -19
CCOC(=O)C1=NNC(C(=O)c2ccccc2)C1c1ccc(C)cc1 (centres undefined) | -4% | / | 6.7 | -1 | /
COc1c2ccoc2nc2c(OC)cccc12 | 6% | -12 | -1.1 | 4 | 1
CCn1c2ccc(C)cc2c2nc3cc(C(=O)O)ccc3nc21 | -1% | -26 | -0.9 | -1 | -4
Cc1cc(C)c2nc(NC(=O)C3CCCO3)sc2c1 (centres undefined) | 0% | -11 | -1.3 | 21 | -7
Cc1ccc([N+](=O)[O-])c(OCCN2CCNCC2)c1 | -6% | -11 | 2.7 | 8 | -2
CCOC(=O)c1ccc(NC(=O)N2C[C@@H]3C[C@@H](C2)c2cccc(=O)n2C3)cc1 | / | / | -1.4 | -5 | /
Cc1nn(C)cc1C(=O)NNC(=S)Nc1ccc(Cl)cc1 | -12% | -17 | 1.1 | -4 | 5
CCn1cc(C(=O)N2CCCC2)c(=O)c2cc(S(=O)(=O)N3CCC(C)CC3)ccc21 | / | / | -1.2 | -3 | /
Cc1ccccc1Nc1nc(-c2ccccc2)c(C(=O)Nc2cccnc2)s1 | 13% | -45 | -6.8 | 3 | 22
Cn1c(SCc2nc(-c3ccccc3)no2)nnc1-c1ccco1 | 3% | -12 | 1.0 | -10 | -1
COc1ccc(OC)c(/C=N/N(CCC#N)C2=NS(=O)(=O)c3ccccc32)c1 | / | / | -26 | 1 | /
COc1ccc(OC)c(-c2cc(C(=O)Nc3cc(C)n(Cc4ccc(Cl)cc4)n3)no2)c1 | -2% | -6 | / | -3 | 3
CN(C(=O)CSc1ccncc1)C1CCCN(Cc2ccccc2F)C1 (centres undefined) | / | / | 4.7 | ? | /
COc1cccc(C(c2c(O)nc(SC)n(C)c2=O)c2c(O)nc(SC)n(C)c2=O)c1 | 6% | -30 | -2.9 | 34 | 7
CCC(C)NC(=O)CSc1nnc(-c2ccoc2C)n1CC1CCCO1 (centres undefined) | 0% | -31 | 7.5 | 3 | 4
C/C(=N\NC(=O)c1cccc([N+](=O)[O-])c1)c1cccc(NC(=O)C2CC2)c1 | -5% | / | -1.4 | 14 | -8
Cc1nn(C)c(C)c1NC(=O)Nc1cccc(C(F)(F)F)c1 | -6% | -35 | 1.0 | -9 | -1
O=C(CSc1nc2ccccc2s1)NCc1cc([N+](=O)[O-])ccc1O | / | / | -0.3 | -12 | /
COC(=O)Cc1cc(=O)oc2cc(O)ccc12 | -5% | / | -298 | -1 | -2
O=[N+]([O-])c1cc(C(F)(F)F)ccc1Sc1ccc2ccccc2n1 | -1% | -5 | / | 12 | -2
COc1cccc(NC(=O)Nc2nnc(N3C(C)CCCC3C)s2)c1 (centres undefined) | 13% | / | -0.4 | 41 | /
Cc1ccc2c(c1)NC(=O)C(CC(=O)NCc1cccnc1)O2 (centres undefined) | -4% | -35 | -6.3 | 3 | 6
CCCS(=O)(=O)c1nc(C)cc(C)c1S(C)(=O)=O | -1% | / | 1.2 | -1 | 1
O=C(Cn1c(=O)[nH]c2ccsc2c1=O)NC1CCCCC1 | -2% | -59 | -1.3 | -10 | -5 | Arbovirus anti repeat=-4
Cc1c(C(=O)NCc2ccccc2)c(-c2ccccc2)nn1-c1ccccc1 | 6% | -23 | 2.0 | -1 | -1
COc1cc(/C=N\NC(=O)c2ccc(=O)[nH]n2)cc(OC)c1OC | -2% | -39 | -3.8 | 5 | -2
O=C(CSc1cccc[n+]1[O-])N1CCc2ccccc21 | -1% | / | 1.2 | -3 | /
Cc1ccc2nc(C)c(C(=O)NN=C3CCCCCC3)n2c1 | -1% | / | 0.5 | 6 | -7
CN(CC(=O)Nc1ccc(F)cc1)C(=O)c1cc2c(s1)CCCCC2 | / | / | 0.0 | -1 | /
Cc1cc(C(F)(F)F)n2ncc(-c3cccc(Br)c3)c2n1 | 3% | / | / | 5 | 3
COc1ccc(CN=C2NC(=O)CC(C(=O)Nc3ccc(F)cc3)S2)cc1 (centres undefined) | -5% | -30 | 4.7 | -6 | 6
O=C(N/N=C/c1ccc2c(c1)OCO2)c1sc2cc(Cl)ccc2c1Cl | 58% | -21 | -1.3 | 81 | -18
COc1cc(CCCN2C(=S)NC[C@H]2Cc2ccc(O)cc2)cc(OC)c1OC | -8% | / | -2.0 | -11 | 3
CCCN1CCN(C(=O)c2cccc3c2C(=O)N(CCOC)C3)CC1 | 0% | -25 | -0.7 | -6 | 3

Continuation:
SMILES | Mtb H37Rv | YopH inh | RecA intein inh | Mtb bLac sens | Arbovirus anti | others
CN1C(=O)CC(N2CCN(c3ccc(Cl)cc3)CC2)C1=O (centres undefined) | -4% | -37 | -2.3 | 0 | -2
Cc1ccc(NC(=O)Cn2c(=O)n(CCCCC(=O)NCc3ccco3)c(=O)c3ccccc32)cc1 | 2% | -15 | 7.1 | -5 | 5
COc1ccc(OC)c(NC(=O)CN2CCC(C(=O)c3ccc(C)cc3)CC2)c1 | 45% | -42 | 14 | 99 | -3
Cc1ccc(NC(=O)COC(=O)c2nn(C)cc2Cl)cc1 | / | / | -1.9 | -2 | /
N#Cc1ccccc1NCc1ccccc1 | 5% | 1 | 2.2 | 1 | 0
Cc1c(Br)c(=O)oc2c(Br)c(O)c(O)cc12 | -2% | -7 | -70 | -1 | -33

Arranged by length of the SMILES (largest number first): 3 of the compounds above.
SMILES | Mtb H37Rv | YopH inh | RecA intein inh | Mtb bLac sens | Arbovirus anti | others
COc1ccc(OC)c(NC(=O)CN2CCC(C(=O)c3ccc(C)cc3)CC2)c1 | 45% | -42 | 14 | 99 | -3
CN1C(=O)CC(N2CCN(c3ccc(Cl)cc3)CC2)C1=O (centres undefined) | -4% | -37 | -2.3 | 0 | -2
N#Cc1ccccc1NCc1ccccc1 | 5% | 1 | 2.2 | 1 | 0

Random excerpt: two records from the list, in no set order.
SMILES | Mtb H37Rv | YopH inh | RecA intein inh | Mtb bLac sens | Arbovirus anti | others
Cc1ccc(NC(=O)Cn2c(=O)n(CCCCC(=O)NCc3ccco3)c(=O)c3ccccc32)cc1 | 2% | -15 | 7.1 | -5 | 5
N#Cc1ccccc1NCc1ccccc1 | 5% | 1 | 2.2 | 1 | 0

High-throughput results as filed in PubChem BioAssay.

Some of the compounds tested (hit frequency here may not be typical).
